# Screens from PubChem.
# Rango-impB inh: Rango-importin beta binding inhibition. hit rate 0.031% among 340,000. AID 540263. Rango CFP/YFP FRET sensor + importin beta, 45 min. Q14974. Potency, µM (top dose mostly 92.2 µM), inactives show top-dose inhibition of complex formation; active = rising FRET ratio curve, often small or poorly fitted; inconclusive = mostly compound fluorescence or quenching in the first reads; inactive = flat curves in all reads;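 further: potency means the concentration at half of the fitted maximal effect; 0% = DMSO wells and 100% = buffer wells lacking importin beta; nearly all actives have a fitted effect of over 15% in size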
# Target sequence (Q14974 whole entry, looked up): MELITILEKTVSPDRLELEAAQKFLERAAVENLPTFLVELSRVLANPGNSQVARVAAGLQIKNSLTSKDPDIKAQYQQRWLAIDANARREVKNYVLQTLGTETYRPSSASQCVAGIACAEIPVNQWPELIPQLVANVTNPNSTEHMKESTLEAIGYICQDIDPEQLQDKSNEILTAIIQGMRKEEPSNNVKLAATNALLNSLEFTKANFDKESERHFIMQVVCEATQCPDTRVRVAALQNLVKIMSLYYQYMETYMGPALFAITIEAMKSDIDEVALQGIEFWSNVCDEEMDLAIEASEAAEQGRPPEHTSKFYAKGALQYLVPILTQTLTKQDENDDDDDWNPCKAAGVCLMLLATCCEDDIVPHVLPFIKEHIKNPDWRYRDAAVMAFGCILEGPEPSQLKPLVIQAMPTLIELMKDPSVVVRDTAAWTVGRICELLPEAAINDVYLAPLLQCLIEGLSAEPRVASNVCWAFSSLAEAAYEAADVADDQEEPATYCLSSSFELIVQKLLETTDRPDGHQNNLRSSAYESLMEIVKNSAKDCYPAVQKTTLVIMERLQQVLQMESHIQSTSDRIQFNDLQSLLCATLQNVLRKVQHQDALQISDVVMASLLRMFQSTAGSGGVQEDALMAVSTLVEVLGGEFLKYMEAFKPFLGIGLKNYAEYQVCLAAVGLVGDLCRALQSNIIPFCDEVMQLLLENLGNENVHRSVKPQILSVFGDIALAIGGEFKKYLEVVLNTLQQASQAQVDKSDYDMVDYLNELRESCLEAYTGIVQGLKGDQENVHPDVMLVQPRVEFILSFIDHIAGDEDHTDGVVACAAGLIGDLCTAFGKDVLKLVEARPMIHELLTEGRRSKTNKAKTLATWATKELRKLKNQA
#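 Inhibition scored from the CFP 486 nm/YFP 530 nm FRET ratio 45 min after adding 0.125 microM importin beta to 50 nM Rango biosensor preincubated 5 min with compound (room temperature, PBS with DTT, Tween-20, BSA). No-importin wells as positive control.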
# Rango dissoc inh: inhibitors of RanGTP-induced Rango-importin beta complex dissociation | Potency, µM (series often up to 46.1 µM), inactives show at the top dose activity change, negative = inhibition | O95149+P62826 | Biochemical FRET Rango-importin beta, RanGTP-induced dissociation | hit rate 0.071% among 340,000; active means falling FRET ratio curve, often poorly fitted, with flat reads before Ran was added; inconclusive means other falling curves, or compound fluorescence or quenching; inactive means flat or rising ratio curve;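 further: potency means the concentration at half of the fitted maximal effect; % of control where 0% means no effect; nearly all actives have a fitted effect of over 45% in size; -100% = wells without RanGTP and RCC1; the record marks most hits as doubtful in a second field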
#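 Quantitative HTS using a FRET biosensor: 0.1 uM Rango, 0.25 uM importin beta, 0.6 uM Ran, 2 mM GTP, 0.2 uM RCC1 final, PBS with DTT, Tween-20 and BSA. Post-read taken 45 min after Ran addition.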
# miR-21 reporter: raises the signal of a miR-21 reporter | HeLa miR-21 FLuc reporter, luciferase, 48 h | Potency, µM (highest dose often 38.3 µM), inactives show at the top dose reporter change, positive = more light | 340,000 tested, under 10 active | AID 2288; active = well fitted rising curve with a large enough effect; inconclusive = small, poorly fitted or top-dose-only effect; inactive = no such curve, though single readings can be large or run the other way;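 further: % of control where 0% means no effect; miR-21 action dims this reporter so a rising signal means less miR-21 action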
#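 Using DMEM plus 10% FBS, HeLa miR-21-FLuc cells are incubated with test compounds (final up to about 40uM) for 48 hours; firefly luciferase signal is then imaged following reagent-mediated lysis.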
# GLA inh pH 4.5: blocks human alpha-galactosidase A at pH 4.5. P06280. purified enzyme, 4-MU-alpha-Gal fluorescence, pH 4.5. activity change, negative = inhibition, % at 105 µM. 230,000 tested, under 10 active. AID 1467; inconclusive = small, poorly fitted or top-dose-only inhibition, or a rising curve; inactive = flat fitted curve, though single readings scatter; no compound was filed as active;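 further: 0% = full activity with enzyme and -100% = basal without enzyme; dose as in the result columns while the protocol names 77 µM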
# * hit, by the source's call; u = inconclusive; x = not tested or not shown; & = joins results of further samples. These rows are one share of the data; count on the stated rates, not on these rows.
miR-21 reporter	GLA inh pH 4.5	Rango-impB inh	Rango dissoc inh	SMILES
5.5%	-3.1	-1.0%	-12.4%	COCCn1nnnc1C(C(C)C)N1CCOCC1 (centres undefined)
x	x	-3.7%	21.4%	N#CC1(NC(=O)COC(=O)C2CCN(S(=O)(=O)c3ccc4c(c3)OCCO4)CC2)CCCCC1
2.2%	-1.8	-0.3%	-0.4%	O=C(c1ccccc1Cl)N(C(=O)c1ccccc1Cl)c1nccc(-c2cccs2)n1
0.3%	-2.2	3.2%	-4.7%	CC(C(=O)Nc1ccc(S(=O)(=O)N2CCOCC2)cc1)N(c1ccccc1)S(C)(=O)=O (centres undefined)
-2.9%	4.4	u	9.3%	O=C(CSc1nnc(-c2cccnc2)n1-c1ccc(SC(F)F)cc1)N1CCCc2ccccc21
-16.7%	-0.2	-1.7%	-1.3%	Cn1cc(/C=C/C(=O)N2CCCC(C(=O)c3ccc(C(C)(C)C)cc3)C2)cn1 (centres undefined)
0.5%	7.4	-2.0%	5.2%	COc1ccc(C(=O)OC2CCN(C)CC2)cc1
-1.5%	1.0	1.7%	1.2%	COc1ccc([N+](=O)[O-])cc1/C=N/NC(=O)c1nonc1N
0.7%	5.0	-0.8%	-1.1%	Cc1cccc(NC(=O)N[C@@H](C)C(=O)O)c1
x	x	6.4%	-22.0%	C#CCOCCOCCOCCNc1nc(N2CCN(C(=O)CCCCCCCCCCNC(=O)[C@H](CO)n3cc(CCCSC)nn3)CC2)nc(N2CCN(C(=O)CCCCCCCCCCNC(=O)[C@H](CCCN=C(N)N)n3cc(C[C@@H](C)CC)nn3)CC2)n1
x	x	5.9%	-7.0%	O=C(CSc1nc2ccc(Cl)cc2[nH]1)Nc1ccc2[nH]c(=O)[nH]c2c1
14.6%	u	-0.6%	-11.0%	CC(C)C[C@H](NC(=O)c1nc[nH]c1C(=O)NC(c1ccccc1)c1ccccc1)C(=O)OC(C)(C)C
-0.1%	x	-0.1%	-4.7%	O=C(NCCCC(NC(=O)OCc1ccccc1)C(=O)O)OCc1ccccc1 (centres undefined)
-0.2%	2.2	0.1%	-3.0%	Cc1ccc(OC(=O)CCC(=O)NC(C)c2ccccc2)cc1 (centres undefined)
-11.9%	-7.5	-5.4%	2.2%	COc1ccc(CCN2C(=O)CC(C(N)=O)SC2=Nc2ccccc2)cc1OC (centres undefined)
0.5%	1.7	-2.0%	2.4%	CCOC(=O)CN(C(=O)CSc1nnc(CNc2ccc(F)cc2)o1)c1ccccc1
2.3%	x	u	20.8%	Cc1ccc2c(c1)N(CC(=O)N1CCOCC1)C(=O)CO2
-1.2%	x	1.2%	4.9%	COc1cccc(/C=N/N(C)C2=NS(=O)(=O)c3ccccc32)c1O
-14.4%	-0.1	-2.9%	1.0%	Cc1ccc(C#N)c(SCc2ccccc2[N+](=O)[O-])n1
28.6%	-8.1	0.6%	-1.3%	COc1ccc(C(=O)/C(=C/O)N=Nc2ccc(F)cc2)cc1
-4.5%	x	0.4%	5.8%	Cc1cccc(C(=O)N2CCCC(N3CCN(c4ccccc4)CC3)C2)n1 (centres undefined)
-1.7%	-2.3	-1.3%	-0.9%	COc1cc(-c2nc(S(=O)(=O)c3ccc(Cl)cc3)c(N(C)C)o2)cc(OC)c1OC
1.1%	-10.2	u	-27.4%	Cc1ccc(S(=O)(=O)NC(=O)c2cc(C)n(CCCN3CCOCC3)c2C)cc1
-4.2%	2.9	-2.9%	-7.1%	Cc1nn(-c2cccc(Cl)c2)c2nc(-c3ccco3)cc(C(=O)O)c12
-1.3%	x	-0.2%	-2.2%	COc1cccc(NC(=O)C2C3C=CC4(O3)C2C(=O)N(CCCN2CCCCC2)C4C(=O)NC2CCCCC2)c1 (centres undefined)
-17.2%	x	-0.3%	6.8%	COC(=O)c1ccccc1NC(=O)CN1CCc2ccccc2C1
2.3%	0.3	-3.0%	29.5%	Cc1cc(NC(=O)CSc2ccc3nnc(-c4ccc(Cl)cc4)n3n2)no1
x	x	-2.4%	-0.3%	O=C(Nc1ccccc1N1CCOCC1)c1cccc(S(=O)(=O)Nc2ccccc2F)c1
0.3%	3.3	6.0%	-13.1%	CS(=O)(=O)N(CC(=O)N1CCN(Cc2ccc3c(c2)OCO3)CC1)C1CCCCC1
-1.0%	1.5	4.4%	8.5%	CC(C)[C@H](NC(=O)Nc1cccc(Br)c1)C(=O)O
-2.3%	8.3	1.9%	0.4%	COc1ccc(C(=O)NN2CCCCC2)cc1OC
0.6%	-4.3	-1.8%	-1.8%	COc1ccc(N2CCN(C(=O)CCCn3c(=S)[nH]c4cc5c(cc4c3=O)OCO5)CC2)cc1

# For convenience, 3 of the compounds above:
miR-21 reporter	GLA inh pH 4.5	Rango-impB inh	Rango dissoc inh	SMILES
-1.3%	x	-0.2%	-2.2%	COc1cccc(NC(=O)C2C3C=CC4(O3)C2C(=O)N(CCCN2CCCCC2)C4C(=O)NC2CCCCC2)c1 (centres undefined)
-17.2%	x	-0.3%	6.8%	COC(=O)c1ccccc1NC(=O)CN1CCc2ccccc2C1
2.3%	0.3	-3.0%	29.5%	Cc1cc(NC(=O)CSc2ccc3nnc(-c4ccc(Cl)cc4)n3n2)no1

# (next part)
miR-21 reporter	GLA inh pH 4.5	Rango-impB inh	Rango dissoc inh	SMILES
-52.7%	x	-3.9%	-16.0%	CC(C)(C)c1ccc(C(=O)NC(=S)N2CCOCC2)cc1
-0.9%	-6.6	6.4%	0.9%	O=C(NCc1n[nH]c(=S)n1Cc1ccccc1)c1ccc(Cl)cc1Cl
-2.4%	x	-0.9%	-5.8%	CN(C(=O)c1ccncc1)C1CCCN(Cc2ccccc2F)C1 (centres undefined)
-1.8%	-3.1	-1.5%	-2.9%	COc1cc(NC(=O)CSc2nnc(C)s2)cc(OC)c1OC
15.3%	x	-1.4%	1.1%	O=C(NCc1cccnc1)C1CC(c2ccc(Cl)c(Cl)c2)=NO1 (centres undefined)
-0.4%	6.2	0.2%	4.6%	CCN1C(=O)CC(N2CCN(CC(=O)NC(C)C)CC2)C1=O (centres undefined)
x	x	-1.2%	0.2%	COc1ccc(S(=O)(=O)N(C)C)cc1NC(=O)CSC(C)C(=O)Nc1cc(C)on1 (centres undefined)
-28.4%	1.3	-5.2%	-20.5%	O=S(=O)(Nc1ccc2c(c1)OCO2)c1ccc(Br)s1
17.4%	x	4.6%	-2.6%	CCOc1ccc(C(O)(c2ccccc2OC)C(CN2CCCC2)c2ccccc2)cc1 (centres undefined)
-2.0%	-2.6	-0.6%	-16.3%	CC1CC(C)(C)NC(=S)N1CCC(=O)NCc1ccc(Cl)cc1 (centres undefined)
-2.1%	-1.3	u	u	Cc1cccn2c(=O)c3cc(C(=O)NCC4CCCO4)c(=N)n(Cc4cccnc4)c3nc12 (centres undefined)
-25.2%	4.0	-3.9%	9.5%	COc1cc(Nc2ncnc(N)n2)cc(OC)c1
-11.9%	-4.5	-2.5%	-0.8%	Cc1cc(C)n(C(=O)c2ccc(NC(=O)CC(C)C)cc2)n1
x	x	-1.8%	9.7%	C=CC[C@@H](CC(=O)N(CCO)Cc1ccccc1)C(=O)N[C@H](COC(=O)[C@@H](CC=C)CC(=O)OC(C)(C)C)C(C)(C)C
-3.1%	-0.3	1.7%	-0.7%	CSc1sc(C#N)c2c1/C(=N\O)CCC2
-5.8%	-9.3	0.3%	0.7%	COc1ccccc1CCNC(=O)/C(=C/c1cccnc1)NC(=O)c1ccccc1
x	x	0.4%	-12.5%	Cc1nnc(SCC2=C(C(=O)O)N3C(=O)C(NC(=O)COc4ccccc4)C3SC2)s1 (centres undefined)
-4.3%	x	u	-3.6%	CN(CCCC1CCCC1)C(=O)CC1C(=O)NCCN1Cc1ccc(F)cc1 (centres undefined)
-2.3%	-8.8	3.7%	-7.5%	O=[N+]([O-])C(=C1SCCS1)C(=C(Cl)Cl)N1CCCCC1
-6.1%	x	-0.5%	-8.5%	CC1(C)C(C=C(Cl)Cl)C1C(=O)Nc1ccc(S(=O)(=O)Nc2ncccn2)cc1 (centres undefined)
-45.9%	1.3	5.8%	-0.8%	CC1CN(C(=O)Nc2ccc3c(c2)OCCO3)CC(C)O1 (centres undefined)
6.6%	x	-2.5%	-1.2%	CCN1CCCC1CNC(=O)c1cc2c(OC)c(OC)c(OC)cc2[nH]1 (centres undefined)
7.8%	-16.8	-0.2%	-18.2%	CC(Oc1cccc(Cl)c1)C(=O)Nc1ccncc1 (centres undefined)
-1.6%	-1.9	0.9%	-3.2%	COc1cccc(C(=O)CSc2nnc(CNS(=O)(=O)c3ccc(C)cc3)n2C)c1
-14.4%	x	-1.2%	3.8%	COc1ccccc1OCc1ccc(C(=O)N2CCCCC2)o1
3.3%	4.5	-0.3%	16.8%	CCOc1cc(CN2CCN(C(=O)CC(C)C)CC2)ccc1OC
-4.9%	-4.0	-3.1%	0.0%	O=c1c2sccc2nc(SCc2cc(=O)n3ccccc3n2)n1-c1ccc(Br)cc1
-15.3%	x	-2.4%	19.7%	O=C(CSc1nnnn1-c1ccccc1)N1CCNC1=O
3.8%	-3.8	-0.1%	-5.7%	CN(C)c1ccc(C(=O)N2CCN(c3cc(C(F)(F)F)nc4ccccc34)CC2)cc1
-2.4%	4.3	-0.1%	1.3%	CCOc1ccc(NC(=O)C2CC(=O)NC(N3CCc4ccccc43)=N2)cc1 (centres undefined)
-0.7%	-11.3	-0.3%	6.9%	c1ccc(CCNc2c3c(nc4ncnn24)CCC3)cc1
7.8%	2.6	1.0%	0.3%	O=C(Nc1ccccc1C(=O)Nc1nncs1)c1ccccc1
-7.6%	4.3	3.8%	1.8%	Cc1ccc(CN(CC(=O)NC2CCCC2)C(=O)CSc2nnc(COc3ccccc3)o2)cc1
9.5%	2.6	u	-13.1%	Cc1nc(NC(=O)c2ccccc2)sc1-c1csc(NCCc2ccccc2)n1
-11.1%	19.4	0.3%	-8.6%	CC(C)CC(=O)Nc1ccc(C(=O)COc2ccc(-c3nnco3)cc2)cc1
x	x	-2.6%	-3.2%	CCCCn1nc(C(=O)N(C)CC(=O)Nc2cccc(F)c2)c2ccccc2c1=O
1.1%	4.9	u	u	CCOC(=O)CSC1=N/C(=C/c2ccc(-n3cncn3)cc2)C(=O)N1C(C)=O
14.2%	1.1	-4.0%	16.8%	Cc1ccccc1N1CC2=C(C1=O)C(c1ccccc1)NC(=O)N2C (centres undefined)
-5.5%	6.7	2.3%	0.6%	COC(=O)c1c(N2C(=O)Nc3ccccc3N2O)sc2c1CCCC2
-16.5%	x	0.3%	-0.2%	C/C(=N\NC(=O)CNC(=O)c1cccs1)c1ccc(Cl)c(Cl)c1
-13.3%	x	u	1.6%	Cc1cnc(C(=O)NC2CC(C)(C)Cc3c2cnn3-c2cccc(F)c2)cn1 (centres undefined)
-6.7%	-1.6	0.9%	2.9%	COc1ccc(-n2c(C)csc2=S)cc1
x	x	-3.4%	11.1%	COC(=O)c1ccccc1S(=O)(=O)N1CCC(C(=O)NCc2ccco2)CC1
x	x	u	-3.2%	CS(=O)(=O)N1c2ccccc2[C@]2([C@@]34C[C@H]5C(=O)N[C@@H](Cc6ccccc6)C(=O)N5[C@@H]3N(S(C)(=O)=O)c3ccccc34)C[C@H]3C(=O)N[C@@H](Cc4ccccc4)C(=O)N3[C@H]12
x	x	-2.7%	-26.3%	Cc1ccc2nc(NC(=O)CSc3nc(=O)n(CCCN(C)C)c4c3CCC4)sc2c1
-17.0%	-5.3	u	2.2%	CCOc1ccccc1NC(=O)CSc1ccccc1
-4.9%&-9.1%	x	6.8%	-16.4%	Cc1cc2c(cc1S(=O)(=O)CCC(=O)N(C)C1CCCCC1)OCC(=O)N2
-28.6%	x	3.3%	6.2%	O=C(O)c1cccnc1SCc1cccc(Br)c1
-48.9%	x	-0.9%	21.4%	O=C(Nc1ccc(CSc2ccccc2)cc1)c1ccco1
27.0%	4.8	-2.1%	1.1%	CN1CCN(CC(=O)Nc2cc(N(C)C)nc3ccccc23)CC1
-1.7%	x	2.8%	-1.1%	Cc1nn(CC(=O)NCc2ccc(OC(C)C)cc2)c(=O)c2cc(-c3ccccc3)nn12
2.4%	-2.5	3.1%	1.1%	CNc1ccc(Cl)nn1
-12.3%	9.7	u	-15.2%	O=C(Nc1ccc(-c2nc3cccnc3s2)cc1)c1ccc(Br)o1
